# LANA-H2A inh: blocks KSHV LANA binding to histone H2A/H2B | Q9QR71 | 0.6% of 320,000 active | inhibition, % (concentration not given with the values) | cell-free LANA-H2A/H2B peptide, fluorescence polarization; in the data active means inhibition mostly above about 10%, no sharp cut-off; inactive means mostly below about 6.7%;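 further: stock transfer was 7.5 nL into about 10 µL; 0% = median of vehicle wells and 100% = median of positive control wells; one replicate is shown; the record names a cut of 25% in any replicate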
# HNF4A DNA FP: change in binding of human HNF4 alpha to DNA; activity change, % at 10 µM; 0.3% of 360,000 active; HNF4a-FITC DNA binding, fluorescence polarization, 1 h; P41235; in the data active means activity change above about 30%, passing the limit was not always enough;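 further: controls were the assay level and a saturating level of protein; the project sought stronger binding though the title names inhibitors; some compounds called inactive have numbers as strong as hits; positive values seem to mean higher polarization but the record does not say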
# Target sequence (P41235 whole entry, looked up): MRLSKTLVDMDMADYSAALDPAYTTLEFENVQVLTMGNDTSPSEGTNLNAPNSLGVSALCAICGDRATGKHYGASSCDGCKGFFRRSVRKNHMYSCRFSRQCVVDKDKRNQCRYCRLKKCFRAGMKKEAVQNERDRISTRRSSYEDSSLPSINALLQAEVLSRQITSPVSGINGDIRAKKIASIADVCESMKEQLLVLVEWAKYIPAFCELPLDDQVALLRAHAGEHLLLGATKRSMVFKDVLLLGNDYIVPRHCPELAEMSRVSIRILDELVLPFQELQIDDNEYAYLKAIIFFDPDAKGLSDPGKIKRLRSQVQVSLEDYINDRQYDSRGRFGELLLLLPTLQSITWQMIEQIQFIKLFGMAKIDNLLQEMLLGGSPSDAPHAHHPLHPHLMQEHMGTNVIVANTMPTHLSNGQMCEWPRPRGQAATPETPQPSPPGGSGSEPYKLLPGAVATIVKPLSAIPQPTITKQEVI
# ALR H2O2 inh: blocks human ALR sulfhydryl oxidase activity; P55789; purified ALR, DTT oxidation, H2O2 HRP-luminol luminescence; 3.8% of 290,000 active; inhibition, % (test concentration not listed);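 active means mean and each replicate at 75% or more; inconclusive means only one of the two met; inactive means neither met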;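 further: stock transfer was 7.5 nL into about 7.5 µL; 0% = neutral wells and 100% = wells with inactivated enzyme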
# Target sequence (P55789 whole entry, looked up): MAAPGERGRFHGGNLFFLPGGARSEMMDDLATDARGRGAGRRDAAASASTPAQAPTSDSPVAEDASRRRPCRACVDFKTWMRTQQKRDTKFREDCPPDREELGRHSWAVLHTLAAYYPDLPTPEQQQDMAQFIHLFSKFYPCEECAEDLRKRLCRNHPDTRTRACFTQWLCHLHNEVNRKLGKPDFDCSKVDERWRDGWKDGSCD
# UCH37 inh: human UCH37 deubiquitinating enzyme inhibition; inhibition, % (concentration not given with the values); AID 588478; 0.33% of 330,000 active; purified proteasome/UCH37, Ub-AMC cleavage fluorescence;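 active means mean of two replicates above 20%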;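 further: 0% = compound-free wells with enzyme and 100% = wells lacking proteasome; stock transfer was 100 nL into about 20 µL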
# Target sequence (Q9Y5K5 whole entry, looked up): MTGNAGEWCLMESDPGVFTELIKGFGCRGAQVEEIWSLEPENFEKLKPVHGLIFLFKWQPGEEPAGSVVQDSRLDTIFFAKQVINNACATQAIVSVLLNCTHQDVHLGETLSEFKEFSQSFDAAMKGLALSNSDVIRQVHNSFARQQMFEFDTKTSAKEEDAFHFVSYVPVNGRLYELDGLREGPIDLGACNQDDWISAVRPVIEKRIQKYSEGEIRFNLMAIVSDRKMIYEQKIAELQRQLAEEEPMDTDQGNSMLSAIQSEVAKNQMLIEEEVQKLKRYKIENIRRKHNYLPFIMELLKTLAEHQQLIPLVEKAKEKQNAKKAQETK
#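 Material: Human UCH37 enzyme supplied as purified proteasome complex | Schedule: 30 min compound-proteasome preincubation then 25 min substrate reaction, room temperature | Detection: AMC fluorescence from Ub-AMC cleavage, excitation 355 nm, emission 460 nm | Benchmarks: Wells without proteasome as full block, compound-free enzyme plus substrate as uninhibited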
# E coli growth: inhibitors of Escherichia coli growth; OD600, 23 h; hits give low values; OD600 absorbance (no concentration beside the values); 0.21% of 330,000 active; AID 1053175;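 active means OD600 absorbance below the run mean of sample wells minus 3.6 SD, in any replicate, cut at about 0.56 in these data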;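 further: stock transfer was 300 nL into about 60 µL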
# Beta2AR agonist: activates human beta-2 adrenergic receptor causing internalization | 0.43% of 340,000 active | response, % (no concentration beside the values) | Am2.2-beta2AR cells, FAP receptor internalization, flow cytometry; reference of the scale not given here | AID 504454;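 active means response above a set limit, near 3 SD of response in nonfluorescent compounds, cut at about 42% in these data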;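 further: stock transfer was 100 nL into about 11 µL; a reference agonist was the positive control; negative values mostly stem from fluorescent compounds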
# FGF22 binding: shifts melting point of recombinant human FGF22; Q9HCT0; AID 651658; 1.5% of 340,000 active; calls only at 9.99 µM; recombinant FGF22 thermal shift, SYPRO orange fluorescence; percent of sucrose octasulfate shift, DMSO zero;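 active means melting point raised past a set limit in the mean and every replicate; inconclusive means no clear call; three in four hits are not shown here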
# Active calls of the source: *; i = inactive; ? = inconclusive; . = not tested or not shown; + = active, no number. Some of the compounds tested; count on the stated rates, not on these rows.
SMILES,LANA-H2A inh,HNF4A DNA FP,ALR H2O2 inh,UCH37 inh,E coli growth,Beta2AR agonist,FGF22 binding
CS(=O)(=O)Nc1ccc(C(=O)NCc2ccc3c(c2)OCO3)cc1,4.4,2.4,2.8,0.3,0.682,-1.3,.
Oc1ccc(-c2nc3ccccc3s2)c(O)c1,-1.6,-6.2,27.2,-40.9,0.581,-17.5,+
COC(=O)c1[nH]c2ccc(C)cc2c1NC(=O)CCN1CCN(Cc2ccc3c(c2)OCO3)CC1,-1.4,-1.7,-15.0,-22.8,0.704,5.2,.
Cc1cccc(C(=O)NCC(=O)NC2CCN(Cc3ccccc3)CC2)c1,4.8,0.8,-4.3,-1.0,0.619,3.7,i
CN(C)CCCN(C(=O)c1ccc(S(=O)(=O)N2CCc3ccccc32)cc1)c1nc2c(Cl)cccc2s1,-0.3,2.4,-2.8,5.4,0.635,32.7,i
O=C1CCCC/C1=C\Nc1ccccc1C(=O)O,-3.7,-0.7,-5.7,2.7,0.657,-3.9,.
O=C(c1ccccc1)n1nnc2ccccc21,3.2,-5.9,4.1,.,.,-2.7,.
CCCCn1nc2cc(C(=O)NCc3ccccc3)ccc2c1OCC,-0.5,-2.4,.,-56.1,0.673,1.1,i
Cc1ccc(C(=O)NNC(=O)CSc2nnc3c(n2)[nH]c2ccc(F)cc23)cc1,3.5,-10.3,-9.7,2.7,0.695,-1.2,.
COc1ccccc1CNC(=O)COC(=O)c1ccco1,-2.2,-1.6,-9.3,1.3,0.614,4.9,i
Cc1c(C)n(Cc2ccccc2)c2ccc(C(=O)NCCN3CCOCC3)cc12,-3.8,-1.4,8.3,5.1,0.688,9.2,i
COc1ccc(NC(=O)CNc2cc(S(=O)(=O)N3CCOCC3)ccc2N2CCOCC2)c(OC)c1,-1.5,0.4,1.2,1.5,0.66,0.2,i
O=C(O)c1cc(-c2cccc3ccccc23)nc2ccccc12,0.4,1.8,.,-23.1,0.67,7.1,i
Nc1ccc(NC(=O)c2cccs2)c(Cl)c1,1.2,-1.7,?,0.3,0.671,0.9,i
CCn1ncc(/C=C/C(=O)C2CC2)c1C,2.6,-1.4,.,5.9,0.703,-6.0,.
COc1ccc(S(=O)(=O)Nc2ccc(Cl)cn2)cc1,0.0,-3.7,1.6,.,.,-4.2,i
O=S(=O)(NCCc1csc(-c2cccnc2)n1)c1ccc(F)cc1,-7.7,5.7,-4.2,0.8,0.696,0.2,i
NC(=O)CC(NC(=O)c1ccccc1)c1ccc(NCCOc2ccccc2)c([N+](=O)[O-])c1 (stereo unspecified),-1.6,4.8,1.2,5.6,0.639,-3.4,.
Fc1ccc(-c2nnc(Cc3nnc(-c4ccc(F)cc4)o3)o2)cc1,-0.6,8.4,-2.3,0.6,0.715,-0.3,.
Cc1ccc(NC(=O)OCCNC(=O)c2ccncc2)cc1,-1.3,-6.1,.,6.4,0.695,1.3,i
CCOC(=O)CCSc1nc(C)c2cc(C)ccc2n1,-4.7,1.6,.,-7.3,0.678,3.7,i
CC(C)COc1ccc(-c2nnn(CC(=O)N3CCCC3)n2)cc1,-0.7,0.8,7.0,0.6,0.682,-5.2,.
CSc1nc2ccc(NC(=O)c3c(-c4ccccc4)noc3C)cc2s1,-3.3,2.0,-20.0,1.6,0.597,-7.8,i
O=C1NC(=S)NC1=Cc1ccccc1O,.,12.7,.,14.4,0.586,9.3,i
CC[C@]1(c2ccccc2OC)C(=O)N(C(=O)OC)N1C(=O)OC,-2.4,-2.6,.,6.1,0.683,8.8,i

# Some entries already given with just E coli growth, FGF22 binding and ALR H2O2 inh.
molecule	E coli growth	FGF22 binding	ALR H2O2 inh
Cc1c(C)n(Cc2ccccc2)c2ccc(C(=O)NCCN3CCOCC3)cc12	0.688	i	8.3
O=C(c1ccccc1)n1nnc2ccccc21	.	.	4.1
CCOC(=O)CCSc1nc(C)c2cc(C)ccc2n1	0.678	i	.

# New compounds follow.
SMILES,LANA-H2A inh,HNF4A DNA FP,ALR H2O2 inh,UCH37 inh,E coli growth,Beta2AR agonist,FGF22 binding
CNC[C@H]1Oc2c(NS(=O)(=O)c3ccc(OC)cc3)cccc2C(=O)N([C@H](C)CO)C[C@H]1C,-3.4,9.3,0.9,-0.9,0.752,0.4,i
Cc1nn2c(NCCCN(C)C)c3c(nc2c1-c1ccccc1)CCCC3,4.2,-1.6,97.1*,1.1,0.676,-10.4,i
CN(c1ccccc1)S(=O)(=O)c1cccc(NC(=O)Cc2ccc(Cl)cc2)c1,-10.1,0.4,.,1.5,0.663,6.5,i
Cc1cccc(C)c1NC(=O)C(NC(=O)CN1C(=O)c2ccccc2C1=O)c1ccccc1 (stereo unspecified),-2.9,-0.8,-1.6,0.8,0.703,7.0,.
CN1CCN(C(=S)SCC(=O)N2CCCc3ccccc32)CC1,-0.6,-0.5,-6.9,1.3,0.658,-11.2,i
COc1ccc(F)cc1C(=O)C1CCCN(C(=O)c2cccc(N(C)C)c2)C1 (stereo unspecified),1.3,5.6,.,2.8,0.714,-7.2,i
Cc1ccc(C23CC4CC(CC(C(=O)NN)(C4)C2)C3)cc1,1.8,1.8,-4.8,1.5,0.669,-4.9,i
CC/C(=N\Nc1ccnc2cc(Cl)ccc12)c1ccc(O)cc1,-2.0,1.9,95.9*,.,.,-7.1,i
Cc1nc(Nc2ccccc2F)c2nnn(Cc3ccccc3Cl)c2n1,-1.1,-0.5,-4.0,-147.2,0.709,5.7,i
NC(=O)CC[C@@H]1NC(=O)[C@@H]2CCCN2C(=O)c2cc([N+](=O)[O-])cc(I)c2NCCC[C@@H](C(=O)NC(CC(=O)O)C(N)=O)NC1=O (stereo partly specified),-8.1,.,-6.2,3.8,.,.,i
CC1CCCCC1NC(=O)c1nnc(Cc2ccc(Cl)cc2)o1 (stereo unspecified),-0.6,3.5,-14.5,4.7,0.678,-7.6,i
NC(=O)c1ccccc1NC(=O)/C=C/c1ccccc1,5.6,-1.3,-2.5,0.9,.,-18.5,.
Cn1c(SCC(=O)NCC2CCCO2)nnc1-c1c[nH]c2ccccc12 (stereo unspecified),-0.7,-0.1,.,1.7,0.685,-2.0,i
O=C(O)c1ccccc1N1C(=O)C2C3CCC(C3)C2C1=O (stereo unspecified),-0.1,-11.7,-2.5,1.1,0.693,7.5,i
COc1ccc(/C=N/O)cc1COc1ccc(NC(C)=O)cc1,1.6,1.2,46.4,.,.,1.3,.
Cc1cc(NS(=O)(=O)c2ccc(C(C)C)cc2)no1,-1.7,0.4,-4.4,3.9,0.687,-3.5,i
O=S(=O)(c1ccsc1)N1CC=C(c2ccccc2)CC1,2.3,1.3,-1.7,-0.6,0.669,10.0,i
CC(C)C(=O)NNC(=O)c1csc(CS(=O)(=O)c2ccc(Cl)cc2)n1,1.3,4.3,-6.9,3.9,0.688,-2.3,i
Cc1cc(=O)n2nc(N3CCC(C(=O)Nc4cccc(Cl)c4C)CC3)sc2n1,1.6,-5.7,-3.7,0.7,0.7,-0.3,i
CCn1c(=O)c([N+](=O)[O-])c(NCCN(C)C)c2ccccc21,-1.1,1.8,.,1.5,0.707,-2.5,i
CCNC(=O)C(CCSC)NS(=O)(=O)c1ccc(C)cc1 (stereo unspecified),-2.2,-0.5,-4.1,3.4,0.702,-7.0,i
CCc1cc2cc3c(cc2nc1SCC(=O)Nc1c[nH]c(=O)[nH]c1=O)OCO3,5.5,6.6,1.5,-3.0,0.73,6.0,i
CCCCCC(=O)Nc1nc2ccccc2[nH]1,1.6,1.7,-1.4,2.8,0.721,-14.2,.
O=c1oc2ccccc2n1Cc1cccc(F)c1,-1.4,0.6,-4.9,1.1,0.596,-22.8,i
COc1cc(C[C@H](C)[C@H](C)Cc2ccc3c(c2)OCO3)ccc1O,-4.7,-1.3,19.3,2.0,.,-6.2,.
O=C(Nc1cc(S(=O)(=O)N2CCOCC2)ccc1Cl)c1ccncc1,1.5,-3.3,-11.0,4.2,0.714,9.7,i
COC(=O)\C(C(C)=O)=C(/C=C/C=C/C=C/N(C)C)N(C)C,.,116.2,.,9.4,0.784,8.7,.
COc1cccc(OC)c1Nc1nc(C)nc2c1nnn2Cc1ccccc1Cl,-2.1,4.9,1.9,-2.1,0.735,-2.8,i
O=C(O)CC1SC(=O)N(CC(=O)c2ccccc2)C1=O (stereo unspecified),6.5,1.4,-5.5,2.0,0.616,6.5,i
CCn1nc(CC(=O)Nc2nnc(CC(=O)N3CCCCC3)s2)c2ccccc2c1=O,.,1.4,.,-1.0,0.691,3.2,.
O=Cc1ccc(OCC(=O)NCC2CCCO2)cc1 (stereo unspecified),1.5,2.3,-1.9,5.2,0.703,0.1,.
O=C(Cc1ccc(Cl)cc1)NNC(=O)C1CC=CCC1C(=O)O (stereo unspecified),-5.3,-1.0,-12.5,.,.,-2.3,i
COc1ccccc1N1CCN(C(=O)c2cc3n(n2)C(C(F)(F)F)CC(c2ccco2)N3)CC1 (stereo unspecified),0.2,-0.2,.,-0.5,0.786,-5.8,.
COCCCn1c(SCC(=O)Nc2ccc(C(=O)OC)cc2)nc2ccccc2c1=O,-0.2,0.2,69.7,2.7,0.664,-7.7,.
CC1(C(=O)O)CCC(C(=O)NNC(=O)c2ccccc2Cl)C1(C)C (stereo unspecified),1.1,6.7,-3.0,1.1,0.641,3.8,i
COc1ccc(C(=O)NC(=O)N2CCCCC2)cc1,-2.9,-0.6,-2.8,1.8,0.674,-3.6,.
O=C(c1ccc(Cl)c([N+](=O)[O-])c1)N(Cc1ccc(Cl)cc1)C1CCS(=O)(=O)C1 (stereo unspecified),-8.6,2.3,-7.9,3.0,0.664,13.1,.
Cc1cccc(-c2nc(CS(=O)CC(=O)NCCCSC3CCCCC3)c(C)o2)c1 (stereo unspecified),-4.5,-2.6,63.5,2.2,0.739,-0.6,.
CCn1c(=O)cc(SCC(=O)NCc2cccnc2)c2ccccc21,3.8,-2.0,-3.5,-2.2,0.743,-7.7,.
Cc1sc(NC(=O)CN2CCCC2)nc1-c1ccc2c(c1)CCN2C(=O)c1ccc(F)cc1,0.2,-0.7,.,0.8,0.686,3.3,i
COCCSc1nnc(NC(=O)C2CC(=O)N(c3ccccc3)C2)s1 (stereo unspecified),-3.9,0.8,-5.4,-0.4,0.678,-1.4,i
COc1ccccc1CNS(=O)(=O)CCNCc1ccco1,.,-2.0,.,.,.,-4.0,i
CCc1cc(C(=O)Cc2ccc(F)cc2)c(O)cc1O,-1.6,-1.8,18.8,1.6,0.635,-0.4,i
CCC(C)NC(=O)C(Cc1ccccc1)n1cccc1 (stereo unspecified),3.0,-3.0,.,2.3,0.754,27.0,i
COC(=O)Nc1ccccc1C(=O)N1CCN(c2ccc(C)cc2)CC1,-4.7,0.7,54.3,3.9,0.709,2.4,i
COc1ccc(C2(c3ccc(OC)cc3)NC(=O)N(CC(=O)Nc3ccc(C(N)=O)cc3)C2=O)cc1,0.5,-3.8,-0.3,6.4,0.68,-3.5,i
NC(=O)C(c1ccccc1)c1ncc(C(F)(F)F)cc1Cl (stereo unspecified),-3.3,-0.5,-1.5,0.8,0.702,11.3,.
CCCc1ccc(C2=Nn3c(nnc3C(C)C)SC2)cc1,5.9,1.8,-8.7,6.1,0.626,66.3*,.
Cc1ccc2nc(SC(C)C(=O)NC3CCCc4ccccc43)[nH]c2c1 (stereo unspecified),-1.5,-0.8,.,7.7,0.686,-2.1,.
NC(=O)c1cc([N+](=O)[O-])ccc1NCc1ccc(O)cc1,-1.1,-1.9,-48.4,.,.,-2.3,i

# Screening results (PubChem)
